# Screens as filed in PubChem BioAssay.
# miR-21 FLuc: raises the signal of a miR-21 reporter. Potency, µM (titrated, usually from 38.3 µM), inactives show at the highest dose reporter change, positive = more light. HeLa miR-21 FLuc reporter, luciferase, 48 h. 340,000 tested, under 10 active; active = well fitted rising curve with a large enough effect; inconclusive = small, poorly fitted or top-dose-only effect; inactive = no such curve, though single readings can be large or run the other way;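 further: % of control where 0% means no effect; miR-21 action dims this reporter so a rising signal means less miR-21 action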
#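 Using DMEM plus 10% FBS, HeLa miR-21-FLuc cells are incubated with test compounds (final up to about 40uM) for 48 hours; firefly luciferase signal is then imaged following reagent-mediated lysis.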
# Rango dissoc inh: prevents RanGTP from dissociating the Rango-importin beta complex | O95149+P62826 | Biochemical FRET Rango-importin beta, RanGTP-induced dissociation | Potency, µM (series often up to 46.1 µM), for inactives: at the top dose activity change, negative = inhibition | actives 0.071% (n = 340,000) | AID 540253; active means falling FRET ratio curve, often poorly fitted, with flat reads before Ran was added; inconclusive means other falling curves, or compound fluorescence or quenching; inactive means flat or rising ratio curve;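 further: potency means the concentration at half of the fitted maximal effect; % of control where 0% means no effect; nearly all actives have a fitted effect of over 45% in size; -100% = wells without RanGTP and RCC1; the record marks most hits as doubtful in a second field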
#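 Two FRET readings bracket the reaction: one 5 min after compound meets Rango–importin beta, another 45 min after RanGTP-RCC1 (0.6 uM Ran, 0.2 uM RCC1, 2 mM GTP) is added. Only the second defines inhibition.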
# Rango-impB inh: inhibitors of Rango-importin beta complex formation; Q14974; Rango CFP/YFP FRET sensor + importin beta, 45 min; Potency, µM (top dose mostly 92.2 µM), for inactives: top-dose inhibition of complex formation; actives 0.031% (n = 340,000); AID 540263; active = rising FRET ratio curve, often small or poorly fitted; inconclusive = mostly compound fluorescence or quenching in the first reads; inactive = flat curves in all reads;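 further: potency means the concentration at half of the fitted maximal effect; 0% = DMSO wells and 100% = buffer wells lacking importin beta; nearly all actives have a fitted effect of over 15% in size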
#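 Inhibition scored from the CFP 486 nm/YFP 530 nm FRET ratio 45 min after adding 0.125 microM importin beta to 50 nM Rango biosensor preincubated 5 min with compound (room temperature, PBS with DTT, Tween-20, BSA). No-importin wells as positive control.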
# GLA inh pH 4.5: alpha-galactosidase A (human) inhibition, pH 4.5; P06280; purified enzyme, 4-MU-alpha-Gal fluorescence, pH 4.5; activity change, negative = inhibition, % at 105 µM; 230,000 tested, under 10 active; AID 1467; inconclusive = small, poorly fitted or top-dose-only inhibition, or a rising curve; inactive = flat fitted curve, though single readings scatter; no compound was filed as active;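 further: 0% = full activity with enzyme and -100% = basal without enzyme; dose as in the result columns while the protocol names 77 µM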
# Target sequence (P06280 whole entry, looked up): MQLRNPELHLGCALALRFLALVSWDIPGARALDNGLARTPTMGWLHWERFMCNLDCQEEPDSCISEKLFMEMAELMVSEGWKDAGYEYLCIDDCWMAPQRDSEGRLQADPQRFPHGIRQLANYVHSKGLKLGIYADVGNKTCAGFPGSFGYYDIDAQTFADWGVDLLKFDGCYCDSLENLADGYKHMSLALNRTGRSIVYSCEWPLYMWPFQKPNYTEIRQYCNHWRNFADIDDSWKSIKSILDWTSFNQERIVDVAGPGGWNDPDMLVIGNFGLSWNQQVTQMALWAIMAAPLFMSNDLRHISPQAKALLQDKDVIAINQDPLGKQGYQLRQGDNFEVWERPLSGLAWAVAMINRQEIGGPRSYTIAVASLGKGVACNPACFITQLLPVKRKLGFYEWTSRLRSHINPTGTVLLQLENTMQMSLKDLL
# Active calls of the source: *; ? = inconclusive; / = no result given; & = joins results of further samples. An excerpt; count on the stated rates, not on these rows.
SMILES,miR-21 FLuc,Rango dissoc inh,Rango-impB inh,GLA inh pH 4.5
CCCCCCCC(=O)NNC(=O)c1c(O)c2ccccc2n(CC)c1=O,-0.4%,9.8%,-3.8%,4.3
COc1ccc(C(=O)Nc2ccc(N3CCC(C)CC3)cc2)cc1Br,-5.0%,4.5%,2.5%,-1.0
O=c1cc(N2CCCCC2)c(-c2ccccc2)nn1Cc1ccc(Cl)cc1,-0.4%,-16.7%,-3.9%,-0.9
CCOC(=O)C1CCN(C(=O)COc2ccc(S(=O)(=O)N3CCOCC3)cc2)CC1,3.8%,-0.2%,-0.2%,/
CCOc1ccc2oc(=O)cc(CN3CCOCC3)c2c1,-8.1%,2.1%,2.7%,/
CN1C(=O)c2cccc3c(S(N)(=O)=O)ccc1c23,-7.6%,0.581µM*,?,/
Cn1cc([N+](=O)[O-])c(C(=O)N/N=C\c2c[nH]c3ccccc23)n1,-6.3%,-13.2%,8.2%,8.5
COc1cnn(-c2ccccc2)c(=O)c1OC,0.2%,-14.8%,2.1%,6.5
Cc1cc(S(=O)(=O)N2CCCOC2CNC(=O)C(=O)NCc2cccs2)ccc1F (configuration not stated),13.1%,-5.9%,-2.0%,/
Cc1nc(CS(=O)(=O)c2ccc(Cl)cc2)cc(Sc2ccccc2Cl)n1,-2.5%,0.0%,0.2%,-15.8
COc1ccc(CCN2CC(C(=O)OCC(=O)NC(C)c3cccc(Cl)c3)CC2=O)cc1OC (configuration not stated),/,8.1%,-1.7%,/
CN(C)c1ccc(S(=O)(=O)NCC(=O)OCC(=O)c2ccc[nH]2)cc1[N+](=O)[O-],/,1.8%,-1.7%,/
CCn1ncc([N+](=O)[O-])c1C(=O)Nc1ccc(C(=O)N2CCCCC2)cc1,-6.8%,-0.1%,2.2%,0.5
COc1ccccc1NC(=O)CCc1nnc2ccc(NCc3ccco3)nn12,-4.8%,-11.2%,-1.2%,/
CCn1c(SCC(=O)N2CCN(S(=O)(=O)c3ccccc3)CC2)nnc1-c1cccs1,9.1%,14.4%,-0.7%,1.9
COc1ccc(CN(C)CC(=O)NCC(=O)Nc2c(C)cccc2C)cc1,/,-12.9%,1.5%,/
Fc1ccc(CO/N=C2\CCCc3nonc32)cc1,-38.5%,-12.9%,1.8%,-2.9
CC(C)n1ncc2c(C(=O)Nc3cccc(S(=O)(=O)N(C)C)c3)cc(C3CC3)nc21,/,2.3%,-2.8%,/
Cc1cc(C)n(-c2ccc(S(=O)(=O)N3CCCC3)cc2[N+](=O)[O-])n1,0.3%,-9.3%,3.5%,-3.8
NC/C(=N\O)c1ccc(Cl)cc1Cl,-9.8%,-0.7%,-3.3%,-1.1
CC(OC(=O)Cn1cnc2ccccc2c1=O)C(=O)N(C)c1ccccc1 (configuration not stated),/,-13.6%,7.7%,/
O=C(OC1CCOC1=O)c1ccc(Cl)c(S(=O)(=O)N2CCCCC2)c1 (configuration not stated),2.8%,15.1%,-2.4%,4.2
COc1ccc(OC)c(NC(=O)CC2SC(=N)N(c3ccccc3)C2=O)c1 (configuration not stated),-1.7%,1.2%,0.2%,-2.5
Cn1c(=O)cc(OCCCC(=O)NCc2ccc(F)cc2Cl)c2ccccc21,-12.7%,-11.4%,2.0%,-2.6
O=C(Nc1ccccc1SCC1CSc2nc3ccccc3c(=O)n21)c1cccc(Cl)c1 (configuration not stated),20.6%,-13.6%,12.5%,-7.1
C=CCc1cccc(/C=N/NC(=O)CCCNc2ccc(C)cc2)c1O,?,-0.3%,0.3%,-0.6
O=S(=O)(c1ccccc1F)N1CCN(Cc2cc3c(cc2O)OCO3)CC1,/,0.8%,-0.4%,/
O=C(OCCC1Oc2cccnc2NC1=O)c1ccc([N+](=O)[O-])cc1 (configuration not stated),3.1%,/,/,-10.9
COc1c(O)c(=O)n2c3ccccc3c3ccnc1c32,/,?,?,/
O=C(NC(=S)N1CCCCC1CO)c1cccs1 (configuration not stated),/,5.4%,1.3%,/
COc1ccccc1NC(=O)CCc1c(C)[nH]c(=O)c(C#N)c1C,-8.0%,-11.1%,-0.2%,?
COc1ccc(NC(=O)[C@@H](NS(=O)(=O)c2cccc(Cl)c2)C(C)C)cc1S(=O)(=O)N1CCOCC1,/,4.8%,-2.4%,/
CC(=O)c1cccc(N(C(=O)CNC(=O)c2ccco2)C(C(=O)NC2CCCC2)c2ccncc2)c1 (configuration not stated),-0.7%,-23.6%,-1.5%,/
CN(Cc1c(C(=O)N(C)Cc2ccccc2)nc2ccccn12)CC1Cc2ccccc2O1 (configuration not stated),18.3%,-0.2%,-0.6%,-0.1
CCn1c(=O)cc(OCC(=O)NCc2cccnc2)c2ccccc21,-5.0%,0.9%,?,-5.0
COc1cccc(-n2c(C)nc3c(cnn3-c3ccc(C)cc3)c2=O)c1,0.4%,-3.7%,-4.7%,-2.9

# For convenience, some entries already given.
SMILES,miR-21 FLuc,Rango dissoc inh,Rango-impB inh,GLA inh pH 4.5
CCn1c(=O)cc(OCC(=O)NCc2cccnc2)c2ccccc21,-5.0%,0.9%,?,-5.0
COc1cccc(-n2c(C)nc3c(cnn3-c3ccc(C)cc3)c2=O)c1,0.4%,-3.7%,-4.7%,-2.9

# The listing continues:
SMILES,miR-21 FLuc,Rango dissoc inh,Rango-impB inh,GLA inh pH 4.5
C1=Cc2ccccc2Nc2ccccc21,-0.2%,-12.8%,1.2%,0.5
COc1ccc(-c2nnc(SCC(=O)Nc3ncc(C)s3)n2-c2ccccc2)cc1OC,20.9%,-6.7%,0.1%,3.4
COCCn1c(Cc2ccccc2)nnc1SCc1ccc([N+](=O)[O-])cc1,-2.9%,4.2%,4.2%,8.0
Fc1ccc(Oc2nc(-c3ccccc3)nnc2C(F)(F)F)cc1,-5.0%,-3.3%,-1.7%,-8.8
CN(Cc1cccc(Cl)c1Cl)C(=O)c1ccc(NC(=O)CC#N)cc1,-11.3%,-14.6%,-2.6%,0.7
O=c1[nH]c(=S)[nH]c2sccc12,-0.8%,7.6%,0.5%,4.7
Cc1cccc(N2N=C(C(=O)Nc3ccc(Cl)c(S(=O)(=O)N4CCOCC4)c3)CCC2=O)c1,/,26.1%,0.3%,/
CCOc1ccc(S(=O)(=O)NCCC(=O)N2CCN(c3ccc(OC)cc3)CC2)cc1,-1.7%,11.5%,-4.9%,-0.4
O=c1c2c(-c3ccccc3)ccnc2[nH]n1-c1ccccc1,-7.4%&-19.9%,10.3%,1.2%,/
Cc1ccc(S(=O)(=O)Nc2ccccc2F)cc1C(=O)NNC(=O)c1ccccc1O,/,8.8%,-2.5%,/
O=C(CCCC1=NS(=O)(=O)c2ccccc2N1)N1CCN(c2ccc(Cl)cc2)CC1,8.6%,3.1%,2.0%,-21.6
COCCNC(=O)c1c(N)n(-c2cccc(C)c2)c2nc3ccccc3nc12,8.7%,?,?,?

# Looked up one by one from the entries so far:
SMILES,miR-21 FLuc,Rango dissoc inh,Rango-impB inh,GLA inh pH 4.5
CN(Cc1cccc(Cl)c1Cl)C(=O)c1ccc(NC(=O)CC#N)cc1,-11.3%,-14.6%,-2.6%,0.7
COCCn1c(Cc2ccccc2)nnc1SCc1ccc([N+](=O)[O-])cc1,-2.9%,4.2%,4.2%,8.0

# Going on with the list.
SMILES,miR-21 FLuc,Rango dissoc inh,Rango-impB inh,GLA inh pH 4.5
C[C@H](CO)N1C[C@H](C)[C@@H](CN(C)Cc2ccccc2)Oc2ccc(NC(=O)Cn3cnnn3)cc2C1=O,/,9.9%,-0.7%,/
Cc1[nH]nc2c1C(c1ccsc1)C(C#N)=C(N)O2 (configuration not stated),4.4%,2.5%,0.6%,-0.3
COc1cccc(OCc2cc(C(=O)N(C)Cc3nc(C)cs3)no2)c1,-54.3%,24.6%,-0.6%,/
C[C@H](CO)N1C[C@H](C)[C@@H](CN(C)C(=O)NC2CCCCC2)Oc2ccc(NC(=O)Nc3ccccc3)cc2C1=O,/,-6.1%,-2.1%,/
CCOc1ccc(N(C)S(=O)(=O)c2csc(C(N)=O)c2)cc1,0.2%,-8.0%,-0.2%,/
COc1ccc(CCN2C(=O)C(C)=C(C)C2=O)cc1OC,-13.7%,-4.5%,3.1%,/
COc1ccc(NC(C)=O)cc1NC(=O)C1CCCN1C(=O)c1cccs1 (configuration not stated),/,-6.9%,2.8%,/
Nc1ccc(C(=O)Nc2ccc3cc(S(=O)(=O)O)ccc3c2)cc1,/,28.6%,0.8%,/
CCCCNC(=O)C1CCC(CNS(=O)(=O)c2ccc(NC(C)=O)cc2)CC1 (configuration not stated),-2.6%&-1.3%,-14.1%,4.8%,11.5
O=C(Cn1ncc2c1-c1ccccc1OC2)N1CCN(Cc2ccc3c(c2)OCO3)CC1,12.7%,8.9%,1.4%,-0.9
Cc1cc(C(=O)OCC(=O)N2CCOCC2)c(C)n1-c1ccccc1,/,11.7%,0.2%,/
O=C1CCSc2ccc(Cl)cc2N1Cc1ccc(Cl)cc1,-4.7%,1.5%,-0.9%,8.1

# With a hit mark in Rango dissoc inh (from the list above):
SMILES,miR-21 FLuc,Rango dissoc inh,Rango-impB inh,GLA inh pH 4.5
CN1C(=O)c2cccc3c(S(N)(=O)=O)ccc1c23,-7.6%,0.581µM*,?,/

# Next section
SMILES,miR-21 FLuc,Rango dissoc inh,Rango-impB inh,GLA inh pH 4.5
COC(=O)c1cccc(NC(=O)CSc2nc(=O)cc(N)n2-c2ccccc2)c1,-1.4%,6.4%,1.1%,0.8
NNC(=O)C(Cc1cnc[nH]1)NC(=O)OCc1ccccc1 (configuration not stated),-1.9%,-0.4%,-2.0%,/
CC(=O)Nc1cccc(NCC(=O)Nc2cc(S(=O)(=O)N3CCCCC3)ccc2Cl)c1,/,6.4%,-3.3%,/
COc1ccccc1NS(=O)(=O)c1cc(N)ccc1N1CCOCC1,/,-7.6%,0.5%,/
O=Cc1ccccc1OCc1ccc2c(c1)OCO2,-9.9%,-10.2%,-1.8%,/
COc1c2c(cc(O)c1C(C)=O)OC(C)(C)C=C2,/,-3.8%,4.8%,/
COC(=O)c1cnc(Oc2ccc(NC(=O)NC(=O)c3ccccc3Cl)cc2)cc1C(F)(F)F,11.9%,-15.2%,-3.4%,-8.2
CSc1ccc(S(=O)(=O)Nc2ccc3c(c2)NC(=O)CC3)cc1,22.7%,-5.4%,2.7%,0.6
Cc1ccc(S(=O)(=O)Nc2cc(C(=O)Nc3cc(C)cc(C)c3)ccc2Cl)cc1,-11.4%,-6.2%,1.8%,0.3
CC(NC(=O)CSc1nnc(COc2ccccc2)o1)c1ccccc1 (configuration not stated),-0.4%,-1.4%,3.3%,4.1
CSc1nsc(SCC(=O)Nc2cccc(C(=O)O)c2)n1,-6.6%,-7.3%,2.8%,/
COc1ccc(/C=C/c2ccncc2)cc1,-52.3%,4.5%,-1.0%,-0.8
O=C(OCC(=O)N1CCCC1)c1ccc(Cl)nc1,/,-2.1%,3.0%,/
O=C(N/N=C/c1ccc([N+](=O)[O-])cc1)c1[nH]ncc1Br,-52.3%,1.5%,4.7%,-7.9
COC(=O)c1cc(NC(=O)c2cccc(C(F)(F)F)c2)c(=O)oc1C/C=N/OCc1cccc(Cl)c1Cl,-4.4%,?,?,-5.8
COc1ccc(C2C(C#N)=C(N)Oc3cc(O)ccc32)cc1C (configuration not stated),1.8%,?,?,/
CCC(=Nc1ccccc1O)C1=C(O)CC(c2ccccc2)CC1=O (configuration not stated),-3.0%,-0.9%,0.1%,1.3
CC(C)(C)NC(=O)NC(=O)COC(=O)CCC1CCCCC1,-1.3%,0.4%,5.6%,-12.2
CCOc1ccccc1NC(=O)N1CCC(c2nc3ccc(C)cc3[nH]2)CC1,-20.0%,0.8%,-0.6%,-6.5
CCCN1CCN(C(c2cc3cc(OCC)ccc3[nH]c2=O)c2nnnn2C2CCCCC2)CC1 (configuration not stated),-5.3%,-4.7%,-1.6%,8.0
Cc1ccc(-c2cc(C(=O)NCC(c3ccccc3)N(C)C)c3ccccc3n2)o1 (configuration not stated),/,-16.2%,?,/
Cc1noc(NS(=O)(=O)c2ccc(NS(=O)(=O)c3ccc(Cl)cc3)cc2)c1C,/,9.6%,-1.6%,/
CCc1ccc(NC(=O)CN(c2cccc(C)c2)S(C)(=O)=O)cc1,-9.0%,-3.2%,-2.3%,2.5
CCN(C(=O)CSc1nc(-c2ccccc2)c(-c2ccccc2)[nH]1)C1CCS(=O)(=O)C1 (configuration not stated),0.8%,-5.5%,0.3%,5.8
Cn1cccc1-c1nc2ccccc2n1C,-21.7%,1.5%,1.6%,7.2
